LANA-H2B inh = blocks KSHV LANA binding to histone H2A/H2B; cell-free LANA-H2A/H2B peptide, fluorescence polarization; inhibition, % (test concentration not listed); Q9QR71; 0.6% of 320,000 active; in the data active = inhibition mostly above about 10%, no sharp cut-off; inactive = mostly below about 6.7%;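 also: stock transfer was 7.5 nL into about 10 µL; 0% = median of vehicle wells and 100% = median of positive control wells; one replicate is shown; the record names a cut of 25% in any replicate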
Target sequence (Q9QR71 whole entry, looked up): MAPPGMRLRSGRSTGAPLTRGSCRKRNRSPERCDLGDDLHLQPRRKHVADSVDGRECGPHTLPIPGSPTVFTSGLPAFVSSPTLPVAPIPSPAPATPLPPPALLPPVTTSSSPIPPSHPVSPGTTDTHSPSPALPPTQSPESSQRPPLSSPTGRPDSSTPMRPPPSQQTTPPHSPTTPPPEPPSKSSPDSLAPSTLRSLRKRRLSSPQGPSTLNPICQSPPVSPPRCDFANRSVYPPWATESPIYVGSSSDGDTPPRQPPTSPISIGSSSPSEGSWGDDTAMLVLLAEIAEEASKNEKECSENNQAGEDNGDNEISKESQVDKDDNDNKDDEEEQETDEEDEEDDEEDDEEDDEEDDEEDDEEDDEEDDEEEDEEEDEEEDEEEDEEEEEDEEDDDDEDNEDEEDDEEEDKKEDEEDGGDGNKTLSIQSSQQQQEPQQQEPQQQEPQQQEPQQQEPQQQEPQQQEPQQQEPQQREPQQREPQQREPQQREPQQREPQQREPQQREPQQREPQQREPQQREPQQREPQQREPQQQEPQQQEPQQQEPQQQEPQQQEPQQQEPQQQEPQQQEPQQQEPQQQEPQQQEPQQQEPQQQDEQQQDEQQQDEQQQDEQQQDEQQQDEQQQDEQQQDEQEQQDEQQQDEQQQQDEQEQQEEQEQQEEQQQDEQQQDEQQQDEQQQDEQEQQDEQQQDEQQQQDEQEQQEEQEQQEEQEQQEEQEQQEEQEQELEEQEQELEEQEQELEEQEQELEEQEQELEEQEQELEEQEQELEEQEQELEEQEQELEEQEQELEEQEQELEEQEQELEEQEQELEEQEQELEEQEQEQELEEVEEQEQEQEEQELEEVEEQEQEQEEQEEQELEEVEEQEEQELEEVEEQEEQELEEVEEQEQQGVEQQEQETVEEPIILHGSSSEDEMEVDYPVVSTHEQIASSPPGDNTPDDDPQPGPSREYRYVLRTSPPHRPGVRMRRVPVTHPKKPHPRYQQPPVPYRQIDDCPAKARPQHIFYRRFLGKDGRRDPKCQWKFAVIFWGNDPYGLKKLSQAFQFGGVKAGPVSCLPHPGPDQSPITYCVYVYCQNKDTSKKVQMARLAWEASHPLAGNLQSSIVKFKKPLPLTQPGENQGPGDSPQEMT
HNF4A DNA FP = change in binding of human HNF4 alpha to DNA. AID 1224865. HNF4a-FITC DNA binding, fluorescence polarization, 1 h. 0.3% of 360,000 active. P41235. activity change, % at 10 µM; in the data active = activity change above about 30%, passing the limit was not always enough;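 also: controls were the assay level and a saturating level of protein; the project sought stronger binding though the title names inhibitors; some compounds called inactive have numbers as strong as hits; positive values seem to mean higher polarization but the record does not say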
Vif TR-FRET = HIV-1 Vif–A3G interaction blockers – biochemical, TR-FRET, GST-Vif 1-94, biotin-A3G peptide, dose response retest, primary screen (AID 1117319) | TR-FRET GST-Vif / biotin-A3G peptide binding; higher % means a stronger effect; test concentration not given here; strong numbers were not always called active | inhibition, %; hits with a dose series show IC50 in µM | 0.57% of 260,000 active;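 active = above the screen mean plus three standard deviations and confirmed in dose response; inconclusive = results disagree or hit not tested in dose response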;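 also: Vif residues 1-94 fused to GST binding biotinylated APOBEC3G peptide 110-148; 0% = full assay without inhibitor and 100% = GST in place of GST-Vif; retest series ran down from 100 µM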
Calb FLC = affects C. albicans growth with fluconazole. C. albicans CaCi-2 (fluconazole-resistant clinical isolate) + fluconazole, Alamar Blue growth, 48 h. growth inhibition, % (test concentration not listed). 0.57% of 300,000 active;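 active = most replicates above 75%; inconclusive = exactly half above 75%; inactive = most below 75%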;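 also: all wells also contain fluconazole at 8 µg/ml as a sub-toxic cotreatment; 0% = median of DMSO wells and 100% = median of geldanamycin control wells; wells of about 8 µL received 7.5 nL stock; the first replicate is given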
RanGTP-Imp inh = inhibitors of RanGTP-importin-beta interaction, primary screen, biochemical, FRET, CFP-Ran, YFP-importin-beta, homogeneous; cell-free CFP-Ran/YFP-importin-beta FRET ratio; inhibition, % (concentration not given with the values); 1.1% of 300,000 active; AID 2216;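 active = most replicates above 15%; inconclusive = exactly half above 15%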;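 also: 0% = DMSO wells and 100% = Ran loaded with GDP instead of GTP; wells of about 40 µL received 100 nL stock; the first replicate is given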
ALR inh = inhibitors of human sulfhydryl oxidase ALR | 3.8% of 290,000 active | inhibition, % (test concentration not listed) | AID 485317 | P55789 | purified ALR, DTT oxidation, H2O2 HRP-luminol luminescence;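 active = mean and each replicate at 75% or more; inconclusive = only one of the two met; inactive = neither met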;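 also: stock transfer was 7.5 nL into about 7.5 µL; 0% = neutral wells and 100% = wells with inactivated enzyme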
Beta2AR agonist = agonists of human beta-2 adrenergic receptor inducing internalization. response, % (concentration not given with the values). Am2.2-beta2AR cells, FAP receptor internalization, flow cytometry; reference of the scale not given here. AID 504454. 0.43% of 340,000 active;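 active = response above a set limit, near 3 SD of response in nonfluorescent compounds, cut at about 42% in these data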;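 also: stock transfer was 100 nL into about 11 µL; a reference agonist was the positive control; negative values mostly stem from fluorescent compounds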
* hit, by the source's call; u = inconclusive; x = no result given; & = joins results of further samples.

Compound	LANA-H2B inh	HNF4A DNA FP	Vif TR-FRET	Calb FLC	RanGTP-Imp inh	ALR inh	Beta2AR agonist
CC(C)(C)OC(=O)NC(Cc1ccccc1)C(=O)NC(CSC1CCCCO1)C(=O)NN (configuration not stated)	0.1	1.7	x	16	3.1	2	5
COc1ccc(CNc2nc(-c3cccnc3)nn2C(C)=O)cc1	1.3	-4.1	-7%	-3	10.0	x	-2
CC(C)CC(C(=O)NC1CCCCC1)N(Cc1ccccc1)C(=O)c1snc(C(N)=O)c1N (configuration not stated)	-0.3	1.1	x	27	0.8	1	7
O=C(NCCS(=O)(=O)N1CCN(c2ccc(F)cc2)CC1)C1CC(=O)N(c2ccccc2)C1 (configuration not stated)	-2.9	-0.1	x	-4	2.9	-6	-6
CCOC(CNC(=O)Cn1nc(C)c2ccccc21)OCC	-3.1	-2.4	-14%	-1	7.1	-4	0
CC1(C)CC(=O)C=C(N2CCOCC2)C1	0.8	-1.9	4%	-2	-4.0	3	10
O=C(CCC1CCCCC1)Nc1ccccc1-c1ccccc1	-0.9	-6.6	-2%	-11	-1.5	0	4
C=CCNCc1ccc(C(=O)NCCCCCCC)cc1[N+](=O)[O-]	0.8	-5.5	x	-12	-0.1	x	7
COc1ccc(C(=O)CSc2nnc(CNc3ccc(C)cc3C)o2)cc1	-5.3	0.2	5%	-9	4.3	x	1
Cc1c(C(=O)NCC(C)C)sc2nc(-c3ccc(F)cc3)cn12	-2.0	4.2	25%	-4	0.7	-4	-3
COc1ccc(CC(=O)NCc2n[nH]c(=S)n2-c2ccccc2OC)cc1	0.2	1.0	5%	-5	-0.6	17	0
O=C(C1CCCN1S(=O)(=O)c1ccc(Cl)cc1)N1CCCCC1 (configuration not stated)	-0.5	8.1	-3%	-7	-1.2	1	-7
COc1ccc(S(=O)(=O)Nc2ccccc2N2CCOCC2)cc1OC	3.7	0.1	x	x	x	14	-6
Cc1cc(C(=O)NC2CCCN(Cc3ccccc3F)C2)no1 (configuration not stated)	3.2	-0.9	4%	-4	0.5	-8	5
O=C(C[n+]1ccsc1)c1ccccc1	3.0	1.4	-7%	38	2.8	u	-5
CC(=O)N1CCN=C1SCc1ccccc1Cl	3.5	-1.2	-4%	1	0.7	101*	-17
CC1SC(=Nc2ccccc2)N(S(=O)(=O)c2ccccc2)C1=O (configuration not stated)	x	1.8	u	-2	0.8	x	-1
Cc1ccc(CNC(=O)C2CC3Cn4c(nc5cc(C)c(C)cc54)C3N2C)o1 (configuration not stated)	0.6	5.0	-13%	-17	-2.0	x	-5
CN1CCN(S(=O)(=O)c2cccc(S(=O)(=O)c3ccc(Cl)c(Cl)c3)c2)CC1	0.4	0.0	-2%&-2%	0	4.7	x	-9
CCc1ccc(N/C(N)=N/c2nc(CSc3ncccn3)cc(=O)[nH]2)cc1	3.0	1.0	-5%	3	-1.6	30	-5
CC(=O)Nc1ccc(S(=O)(=O)Nc2ccc(NC(=O)c3ccco3)cc2)cc1	1.2	-0.3	71%	-8	1.2	-13	-5
CCCOc1cccc(-c2nc3ccccc3c(=O)o2)c1	2.1	-1.0	0%	2	-2.2	3	4
CC(=O)N/N=C/c1cc(C(C)(C)C)cc(/C=N/NC(C)=O)c1O	1.4	-43	7%	-17	x	8	1
CCN(CC)c1ncnc2c1ncn2Cc1c(Cl)cccc1Cl	-1.5	-2.2	-4%	-9	-6.7	14	19
O=C(NCC(c1ccco1)N1CCc2ccccc2C1)c1c(F)cccc1F (configuration not stated)	-2.5	2.2	5%	-3	1.6	-3	8
COc1cc(NC(=O)CSc2nc3[nH]ncc3c(=O)n2-c2ccc(Cl)cc2)cc(OC)c1	2.3	4.1	x	16	-0.3	0	-9
NS(=O)(=O)c1cc(C(=O)NCC2CCCCC2)ccc1Cl	1.1	3.1	-3%	-5	0.0	1	-11
CS(=O)(=O)c1ccc(Cl)c(NC(=O)C2CCCCN2S(=O)(=O)c2ccccc2)c1 (configuration not stated)	1.5	1.0	x	x	x	x	-6
CC(=O)Nc1ccc(Nc2c([N+](=O)[O-])cc(S(C)(=O)=O)cc2[N+](=O)[O-])cc1	4.9	0.2	x	-2	-4.2	-13	3
COc1ccc(NC(=O)COC(=O)CCCc2c[nH]c3ccccc23)cc1	-1.3	1.1	1%	12	-0.2	85*	-3
O=C(CSc1ccc2nnc(-c3cccc(F)c3)n2n1)NCC1CCCO1 (configuration not stated)	x	3.5	-1%	-8	-2.3	x	-2
Cc1ccc(C(=O)NCCNC(=O)c2ccc(C)nc2)cc1	2.2	1.5	x	2	2.3	-3	61*
c1ccc(OCc2nnc3sc(C4COc5ccccc5O4)nn23)cc1 (configuration not stated)	-2.2	-7.0	7%	11	2.4	-8	-4
O=C1c2cccnc2C(=O)N1c1cccc(-c2nc3ccccc3o2)c1	2.4	-1.0	-7%&4%	5	2.9	-6	-4
COc1cc2c(C(=O)N3CCCc4ccccc43)cn(C)c(=O)c2cc1OC	0.5	0.0	1%	3	-3.4	-2	-4
O=C(CC1C(=O)NC2CCCCC2N1C(=O)c1ccc([N+](=O)[O-])cc1)Nc1ccccc1 (configuration not stated)	0.8	-2.0	-6%	2	-2.5	-9	-3
O=C1CC(c2cc(Br)ccc2F)c2cc3c(cc2N1)CCC3 (configuration not stated)	-3.2	2.6	-5%	1	-0.4	-7	56*
Cc1ccc(C(=O)COC(=O)CNS(=O)(=O)c2ccccc2)cc1[N+](=O)[O-]	2.9	0.5	14%	2	11	-26	2
Cc1sc2nc(CSc3cccc(C(F)(F)F)c3)[nH]c(=O)c2c1C	4.2	2.8	-2%	-8	0.4	0	7
Oc1ccc(/C=N/n2c(COc3ccccc3)n[nH]c2=S)c(O)c1	4.3	2.9	1%	17	1.9	x	10
Cc1ccc(C(=O)c2c3ccccc3[n+]([O-])n2CCC(N)=O)cc1	-0.9	3.7	x	-4	-0.3	19	-5
CC(C)CCCN1CCN=C1N(C)C	-3.8	3.6	x	-6	2.4	3	-6
Cc1cc([N+](=O)[O-])nn1CCCC(=O)NCc1ccc(F)cc1	-7.5	0.2	-5%	-1	3.2	x	-2
COCC(=O)NNC(=S)Nc1cccc(C)c1C	-2.7	-2.5	-8%	-15	3.6	x	4
Cc1ccc(C)c(N2CCN(S(=O)(=O)c3ccc4c(c3)NC(=O)CO4)CC2)c1	x	-3.3	x	4	2.7	5	1
CC1CCN(S(=O)(=O)c2ccc3c(c2)c(=O)c(C(=O)N2CCOCC2)cn3C)CC1	-4.2	-1.9	x	-10	3.2	-20	4
CCCCN(C)C(=O)c1coc(=O)c2ccccc12	-1.5	1.1	-2%	4	-3.5	1	-2
COc1ccc(CCN(C)C(=O)c2cncc(Br)c2)cc1OC	-11	-1.7	x	7	2.4	1	2
O=C(OCc1ccc([N+](=O)[O-])cc1)C1CCN(S(=O)(=O)c2ccccc2)CC1	4.7	-0.3	x	22	4.9	-2	3
Cc1sc(N/N=C/c2ccco2)nc1-c1ccccc1	5.9	2.1	23%	-2	-2.7	17	-11
CCN(CC)CCCNC(=O)CC1Oc2ccc(C)cc2NC1=O (configuration not stated)	5.1	0.5	3%	7	2.6	x	-4
COc1ccc(NC(=S)NC(NC(=O)c2ccc(Cl)cc2Cl)C(Cl)(Cl)Cl)c([N+](=O)[O-])c1 (configuration not stated)	1.1	1.7	5%	-6	-4.2	-5	7
CCC/C(O)=C1\C(=O)CCCC1=NC(C)C(=O)O (configuration not stated)	-8.0	0.1	-2%	-7	3.4	0	5
COc1ccccc1N1CCN(Cc2cc(=O)c(OCC(=O)NC(C)C)co2)CC1	2.5	-53	-3%	1	-1.0	9	-2
CC(=O)Nc1ccc(Nc2ncnc3ccccc23)cc1	2.9	x	9%	-5	-0.6	-16	x
C/C=C1\COC(C(=O)NCCN2CCCC2)(C(F)(F)F)C=C1C=C1CCCCC1 (configuration not stated)	3.0	2.8	x	-20	-0.7	-5	12
O=C(CCN1CCCC1)Nc1ccccc1	-1.2	5.4	25%	2	-3.1	0	2
O=C(O)c1ccc(Cl)c(S(=O)(=O)NC(Cc2ccccc2)C(=O)O)c1 (configuration not stated)	-1.7	1.1	x	3	-0.8	x	2
Cc1nc(-c2cc(-c3nc(-c4ccc(C(C)(C)C)cc4)no3)no2)cs1	-1.0	-3.9	-9%	-12	-3.6	5	-1
COc1cc(C(C(=O)NC2CCCC2)N(C(=O)c2snc(C(N)=O)c2N)c2ccccc2)cc(OC)c1OC (configuration not stated)	-5.3	3.4	x	3	8.6	-4	1

Reformatted with two lines to a compound: part of the list above
Each structure is followed by: LANA-H2B inh	HNF4A DNA FP	Vif TR-FRET	Calb FLC	RanGTP-Imp inh	ALR inh	Beta2AR agonist
Oc1ccc(/C=N/n2c(COc3ccccc3)n[nH]c2=S)c(O)c1
  4.3	2.9	1%	17	1.9	x	10
Cc1nc(-c2cc(-c3nc(-c4ccc(C(C)(C)C)cc4)no3)no2)cs1
  -1.0	-3.9	-9%	-12	-3.6	5	-1

Following part.
Compound	LANA-H2B inh	HNF4A DNA FP	Vif TR-FRET	Calb FLC	RanGTP-Imp inh	ALR inh	Beta2AR agonist
Cc1ccc(S(=O)(=O)NNc2nnc(C)c(=O)[nH]2)cc1	4.7	-7.8	-9%	18	-0.9	16	-6
NC(=O)CC(NC(=O)c1ccccc1)c1ccc(N2CCN(c3ccccn3)CC2)c([N+](=O)[O-])c1 (configuration not stated)	-7.7	-8.5	x	-3	-0.7	1	2
O=C(CCSCc1ccccc1Cl)NCc1ccco1	0.5	-1.4	x	-3	-0.1	93*	8
COc1ccc(C(C(=O)NCCC(C)C)N(CCO)C(=O)c2snc(C(N)=O)c2N)cc1OC (configuration not stated)	2.0	-0.9	x	11	-1.7	x	2
Cc1ccc(C(=O)O/N=C\c2ccc(N3CCOCC3)c([N+](=O)[O-])c2)cc1	3.2	-2.6	25%	-9	3.0	-1	4
FC(F)(F)c1ccc(Sc2n[nH]c(C(F)(F)F)n2)nc1	-2.5	-2.0	5%	-8	0.8	3	1
COC(=O)[C@@H](NC(=O)Nc1ccc(OC(F)(F)F)cc1)C(C)C	-1.0	-3.4	-3%	-10	u	-3	0
CC1CCCN(C(=O)CSc2nnc(-c3c[nH]c4ccccc34)o2)C1 (configuration not stated)	-1.5	5.9	-3%	-5	-0.1	2	2
O=C(CSc1nc(-c2ccccc2)nc2ccc(F)cc12)Nc1ccc(C(=O)O)cc1	-3.0	-2.1	-13%	-19	x	x	0
O=S(=O)(O)c1nnc2sc3ccccc3n12	5.6	1.8	0%	4	2.3	3	-2
